TRPML1 ag = agonists of human TRPML1 channel; activation, % (concentration not given with the values); actives 0.12% (n = 410,000); Q9GZU1; TRPML1-expressing cells, Ca2+ dye fluorescence, FDSS; host cell line not named in the record; reference of the full effect not given here; in the data active = activation above about 50%; inconclusive = about 30% to 50%; inactive = below about 30%; also: 0% is about no effect; the text of the record puts the active cut at 80%
Target sequence (Q9GZU1 whole entry, looked up): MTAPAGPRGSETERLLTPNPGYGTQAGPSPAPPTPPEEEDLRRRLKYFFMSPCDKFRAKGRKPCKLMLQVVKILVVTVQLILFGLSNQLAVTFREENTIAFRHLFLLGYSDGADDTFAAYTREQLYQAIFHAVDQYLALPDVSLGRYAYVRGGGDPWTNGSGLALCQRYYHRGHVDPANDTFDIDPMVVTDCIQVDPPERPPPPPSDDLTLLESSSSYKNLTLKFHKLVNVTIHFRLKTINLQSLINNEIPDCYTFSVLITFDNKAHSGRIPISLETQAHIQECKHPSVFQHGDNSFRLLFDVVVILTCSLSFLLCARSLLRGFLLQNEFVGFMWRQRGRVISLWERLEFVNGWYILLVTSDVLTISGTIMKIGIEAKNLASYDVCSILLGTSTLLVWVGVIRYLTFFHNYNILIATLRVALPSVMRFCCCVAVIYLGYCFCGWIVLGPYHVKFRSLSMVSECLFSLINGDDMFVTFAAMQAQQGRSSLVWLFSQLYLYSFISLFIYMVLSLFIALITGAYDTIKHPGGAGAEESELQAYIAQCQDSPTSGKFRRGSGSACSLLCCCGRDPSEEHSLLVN
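In this qHTS format, compounds were pin-transferred onto Ca8-dye-loaded TRPML1-DL cells induced with Tet overnight, and intracellular Ca2+ fluorescence was recorded kinetically for 110 s after a 10 s baseline. A subsequent 4uM final 54-4 (EC80) addition followed by a second 110 s read served as the antagonist phase.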
TRPV1 potentiator = enhances activation of the human vanilloid receptor TRPV1 | potentiation, % at 8.33 µM | TRPV1-expressing cells, Fluo-8 calcium influx, capsaicin EC20 potentiation; host cell line not named in the record; control for the full effect not named in the record | actives 0.02% (n = 320,000) | Q8NER1; active means potentiation above 80%; inconclusive means 30% to 80%; inactive means below 30%; also: 0% is about no effect
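Cells expressing TRPV1 were dye-loaded with Fluo-8 and read kinetically: 10 s baseline, 3 min after compound (agonist portion), then 2 min after EC20 capsaicin (allosteric enhancer portion). Calcium-bound dye fluorescence at 480/520 nm.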
Six1-Eya2 inh = blocks human Six1 binding to Eya2. AlphaScreen GST-Six1/His-Eya2 binding, biochemical; stronger effect = lower value; control for the full effect not named in the record. activity change, % (no concentration beside the values). actives 0.56% (n = 360,000). AID 651725; in the data active = activity change below about -65%; inconclusive = about -30% to -65%; inactive = above about -30%; also: % is scaled to controls: 0 for no effect and ±100 for the full control effect; compound concentration not given in the record
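Compounds are tested against tagged Six1 and Eya2 proteins bridged by glutathione donor and nickel acceptor beads; after a one-hour incubation at 37 °C without light, AlphaScreen emission is recorded.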
CtBP-E1A blk = blocks the CtBP interaction with E1A; AlphaScreen GST-E1A/His-CtBP binding, 1536-well; stronger effect = lower value; control for the full effect not named in the record; activity change, % (test concentration not listed); actives 0.49% (n = 340,000); in the data active means activity change below about -65%; inconclusive means about -30% to -65%; inactive means above about -30%; also: % is scaled to controls: 0 for no effect and ±100 for the full control effect; compound concentration not given in the record
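Protein mix (5X: 125 nM each GST-E1A, His-CtBP) was incubated with pinned compound 2 h at 37 deg C in dark, in 50 mM Tris pH 8.0 buffer with 300 mM NaCl. Glutathione donor and nickel acceptor beads followed; AlphaScreen signal read after 1 h.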
D2 PAM = potentiates the human D2 dopamine receptor allosterically | P14416 | potentiation, % (concentration not given with the values) | AID 624464 | actives 0.23% (n = 360,000) | DiscoveRx D2 beta-arrestin cells, luminescence, 90 min; 100% = 57 uM dopamine signal; active = potentiation of 50% or more; inconclusive = 30% to 50%; inactive = 30% or less;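 also: compound concentration not given in the record; tested on top of an EC20 dose of dopamine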
Target sequence (P14416 whole entry, looked up): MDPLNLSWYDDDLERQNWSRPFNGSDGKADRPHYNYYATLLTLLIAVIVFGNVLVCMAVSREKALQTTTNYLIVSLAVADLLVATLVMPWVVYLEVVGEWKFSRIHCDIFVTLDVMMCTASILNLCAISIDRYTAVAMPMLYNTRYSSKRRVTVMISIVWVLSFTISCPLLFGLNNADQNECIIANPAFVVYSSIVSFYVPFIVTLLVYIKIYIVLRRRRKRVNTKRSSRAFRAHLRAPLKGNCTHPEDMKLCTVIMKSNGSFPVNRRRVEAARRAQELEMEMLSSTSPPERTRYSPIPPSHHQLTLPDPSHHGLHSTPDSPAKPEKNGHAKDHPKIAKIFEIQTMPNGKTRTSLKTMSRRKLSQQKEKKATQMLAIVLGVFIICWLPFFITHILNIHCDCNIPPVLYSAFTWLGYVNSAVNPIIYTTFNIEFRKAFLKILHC
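D2 cells co-treated with compound plus 50 nM dopamine (EC20) for 90 min at 37 deg C to detect potentiation. Beta-arrestin recruitment was read as enzyme-fragment luminescence after 1 h at ambient temperature. Full response was set by 57 uM dopamine.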
TRPML1 inh = inhibitors of human TRPML1 channel; activity change, negative = inhibition, % (test concentration not listed); TRPML1-inducible cells, Ca2+ dye fluorescence, FDSS; stronger effect = lower value; inhibition of EC80 agonist-evoked calcium signal; Q9GZU1; actives 0.02% (n = 390,000); in the data active means activity change below about -50%; inconclusive means about -30% to -50%; inactive means above about -30%;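 also: stimulus is agonist 54-4 at its EC80 concentration; % is scaled to controls: 0 for no effect and ±100 for the full control effect; compound concentration not given in the record; the text of the record puts the active cut at -80%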
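Calcium fluorescence in TRPML1-DL cells induced overnight with Tet: a 110 s read after compound pin addition, then a 110 s antagonist read after challenge with 54-4 at 4 uM final (EC80).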
The depositor's hits bear a star; u = inconclusive; x = no result given; & = joins results of further samples.

Each structure is followed by: TRPML1 ag, TRPV1 potentiator, Six1-Eya2 inh, CtBP-E1A blk, D2 PAM, TRPML1 inh
> O=C(O)c1cccc(CSc2ncccn2)c1
→ -0.1, 2, 9, 4, -2, -18
> Cc1ccc(-c2nc(CS(=O)(=O)CC(=O)NCCN3CCOCC3)c(C)o2)cc1
→ 0.0, 2, -1, 10, -7, -8
> COc1ccccc1Nc1nc(N)nc(-c2oc3ccccc3c2C)n1
→ -0.3, u, -3, 2, 4, -1
> CCOc1cc(CNc2ncnc3nc[nH]c23)ccc1OC
→ 0.1, 4, -2, 2, -2, -9
> O=C(NCc1cccnc1)c1cc2nc(-c3cccs3)cc(C(F)(F)Cl)n2n1
→ 1.1, -9, -10, -7, 2, -11
> Cc1nc(C(=O)N2CCCC(C(=O)c3ccc(Cl)cc3)C2)cs1 (configuration not stated)
→ x, 1, 0, 3, -1, x
> C/C(=C1/SC(N2CCOCC2)=NC1=O)c1ccc(Br)cc1
→ -0.2, 20, 13, -1, -1, -5
> Cc1ccc(C(=O)N/N=C\c2ccc[nH]2)cn1
→ -0.1, 0, -2, -5, 0, 4
> COc1ccc(S(=O)(=O)NC(=O)C2(C)CCN2C(=O)Cc2ccccc2Cl)cc1OC (configuration not stated)
→ -0.3, x, 0, 6, -12, x
> Cc1c(NC(=O)c2ccc(=O)oc2)c(=O)n(-c2ccccc2)n1C
→ 1.6, -7, 7, -3, -10, -8
> O=C(Cn1ncc2c(=O)oc3ccccc3c21)NCCc1ccsc1
→ 0.4, 27, -1, 1, -11, 64
> CCOc1ccc2nc(NC(=O)Cn3cnc4c3c(=O)n(C)c(=O)n4C)sc2c1
→ 0.5, 6, -3, -6, 14, 28
> O=C(NC1CCCC1)C(c1ccsc1)N(Cc1ccco1)C(=O)Cc1cccs1 (configuration not stated)
→ 0.4, -9, -5, -1, 0, 9
> c1ccc(COc2cccc(CNn3cnnc3)c2)cc1
→ 0.5, -10, 12, 4, -21, -12
> CC(C)(C)OC(=O)[C@H](CCCCN)NC(=O)c1nc[nH]c1C(=O)NCCCCCN
→ -0.5, 7, -9, 0, -45, -13
> O=S(=O)(NC1CC2CCC1C2)c1ccc2c(c1)OCCO2 (configuration not stated)
→ -0.1, -21, 6, 5, 8, 2
> COc1ccc(C(=O)CSc2nc3nn(-c4ccccc4)c(=O)c-3c3n2CCCCC3)c(OC)c1
→ -0.2, x, -5, 0, -8, -1
> O=C(Cn1nnc(-c2cccc(C(F)(F)F)c2)n1)N1CCOCC1
→ 0.9, -4, 3, 10, -8, 9
> CC(=O)C1=C(O)C(=O)N(c2ccc(S(N)(=O)=O)cc2)C1c1ccccc1F (configuration not stated)
→ -0.6, 0, -1, 4, -10, -6
> CC(C)C(NC(=O)c1cccc(S(=O)(=O)N2CCOCC2)c1)C(=O)NCc1ccc(Cl)cc1 (configuration not stated)
→ -1.6, -6, 13, x, -3, -7
> COc1ccc(CN(C)C(=O)CC(c2ccccc2)c2ccccc2)cc1
→ 3.7, -23, 3, -1, -5, 16
> Cc1occc1C(=O)N/N=C/c1cccs1
→ -0.1, 9, 2, 6, -14, 1
> Cc1cc(N)n(Cc2ccc(Cl)cc2)n1
→ 0.6, 2, 3, x, -3, 0
> NC(=O)CSc1nc2cc(S(=O)(=O)N3CCOCC3)ccc2o1
→ 0.5, x, 10, 0, 1, 5
> COC(=O)c1ccccc1NC(=O)CN1CCCCCC1
→ 1.5, -8, 8, 5, -2, -3
> Cc1cc(Br)cn2c(Cc3ccccc3)c(-c3ccc(C#N)cc3)nc12
→ 1.0, x, 5, -2, -15, 69
> O=C(COC(=O)/C=C/c1ccc2c(c1)OCO2)NCc1ccccc1
→ 0.1, 19, 14, 8, -2, -6
> Cc1ccc(CONC(=O)c2ccc(Cl)cc2)cc1
→ 1.5, 3, 1, 0, -3, 12
> Cc1ccc(-c2c(C#N)c(N)nc3c2CCCC3)s1
→ -1.1, -10, 5, 0, -5, -4
> COc1ccccc1NC(=O)CSC(N)=O
→ -0.1, 7, -2, -4, -18, -3
> COc1ccc(/C(O)=C2/C(=O)C(=O)N(Cc3cccnc3)C2c2ccncc2)cc1F (configuration not stated)
→ -0.5, 15, -18, -7, -17, -2
> CC(=O)NC1C(=O)N(CCN2CCOCC2)c2ccc(C)cc21 (configuration not stated)
→ 0.0, -1, -23, x, -36, 4
> CCN1/C(=C2/SC(=S)N(C)C2=O)C=Cc2cc(C)ccc21
→ 0.6, x, -6, -12, -5, 1
> CN1CCc2c(sc(NC(=O)Cc3ccccc3)c2C#N)C1
→ 0.1, -11, -1, 2, 14, 3
> Cc1ccc(C)c(S(=O)(=O)N2CCN(C(=O)CCc3nc4ccccc4c(=O)[nH]3)CC2)c1
→ -0.3, -13, -1, 0, -17, -1
> CN1CCN(C(=O)/C(=C\c2cccc([N+](=O)[O-])c2)NC(=O)c2cccs2)CC1
→ -0.5, 1, 2, 7, -24, 28
> O=C(Cc1ccc(Br)cc1)Nc1cccc(S(=O)(=O)N2CCOCC2)c1
→ 3.4, -13, -6, -5, -4, 5
> NC(=O)c1ccsc1NC(=O)COC(=O)c1ccncc1
→ 1.5, 12, -9, 7, 1, 12
> NC(CSC(c1ccccc1)(c1ccccc1)c1ccc2c(c1)OCO2)C(=O)O (configuration not stated)
→ 0.4, x, -17, -4, -11, -1
> CCOc1ccc2[nH]c(C)c(CN3CCN(CC)CC3)c(=O)c2c1
→ -0.8, 10, 0, 3, -3, 1
> C=CCCC(=O)Nc1nc(C)c(-c2csc(Nc3ccccc3OC)n2)s1
→ -0.2, -2, -13, x, -13, 11
> COc1cc(CC(=O)Nc2cc(S(=O)(=O)N3CCOCC3)ccc2N2CCCC2)cc(OC)c1OC
→ -0.3, x, 5, -19, 3, -12
> CSc1nc(NS(=O)(=O)c2cc(Br)ccc2Br)cc(=O)[nH]1
→ 2.5, -14, -3, -6, -5, 21
> CCN1C(=O)CC(C(=O)O)SC1=Nc1ccc(OC)cc1 (configuration not stated)
→ 0.4, -5, 6, 2, -7, -9
> Cc1ccc(S(=O)(=O)Oc2ccccc2N2C(=O)C3C4CCC(C4)C3C2=O)cc1 (configuration not stated)
→ 0.6, u, -2, 7, -3, 17
> N#Cc1ncc(Cc2ccccc2)nc1C#N
→ -1.0, -2, -6, x, 14, -8
> CCOC(=O)N1CCN(C(=O)Cc2ccccc2[N+](=O)[O-])CC1
→ -0.1, -2, 2, -8, -5, -5
> Cc1c(Br)c([N+](=O)[O-])nn1CC(=O)NCc1ccccn1
→ -0.8, 0, 5, 11, -5, -8
> Cn1cccc1Cc1nnc(SCC(N)=O)n1-c1ccc(F)cc1
→ 0.8, -3, -11, -18, -2, 19
> C=CCn1c(Cc2ccccc2)nnc1SCc1nc2ccccc2c(=O)[nH]1
→ 1.1, -1, 8, -6, -1, 4
> O=C(Cn1c(=O)cnc2ccccc21)N1CCCc2ccccc21
→ 0.4, -10, 3, 5, -6, -4
> C=CCn1c(Cc2nc3ccc(Cl)cc3[nH]2)n[nH]c1=S
→ 0.2, -1, u, -26, -15, 16
> CC(C)CC(=O)NC(c1cccs1)c1ccc2cccnc2c1O (configuration not stated)
→ 1.5, 5, -81*, -88*, 8, 20
> CC(=O)N(/N=C1/C(=O)Nc2ccccc21)c1ccccc1
→ 3.5, 8, -7, -11, -9, -26
> O=C(O)c1ccc(-c2nc(-c3ccccc3)c(-c3ccccc3)[nH]2)cc1
→ -0.5, 5, -12, 1, 2, 7
> CN1c2ccccc2C(O)=C(C(=S)Nc2ccccc2)S1(=O)=O
→ 0.0, 3, 2, -13, -14, 8
> CN(C(=O)Nc1ccccc1)n1cnc2ccccc2c1=O
→ -0.6, -3, -9, 7, -2, 60
> CC1CCCCN1c1nc(-c2ccncc2)nc2ccccc12 (configuration not stated)
→ 2.6, -42, -1, -5, -3, 43
> O=C(Cc1ccccc1)NCC(=O)N/N=C/c1ccc(C(=O)O)cc1
→ 0.6, 10, 21, 11, -7, -7
> COC(=O)c1sc(N2C(=O)C(=O)/C(=C(/O)c3ccc(C)cc3)C2c2ccco2)nc1C (configuration not stated)
→ 3.2, -13, 4, -8, -1, 8

Remaining list, next part:
Each structure is followed by: TRPML1 ag, TRPV1 potentiator, Six1-Eya2 inh, CtBP-E1A blk, D2 PAM, TRPML1 inh
> O=C(CSc1nc2ccccc2c(=O)n1CCC(=O)N1CCCCC1)NCc1ccccc1
→ -0.7, 0, 5, -1, -5, -5
> COc1ccccc1NS(=O)(=O)c1cccc(C(=O)N/N=C/c2ccccc2OCC(=O)O)c1
→ -0.5, 3, -5, -10, 0, 1
> COc1cc(NC(=O)C2=CC(c3ccco3)=NS(=O)(=O)N2C)cc(OC)c1OC
→ 0.4&0.8, -3, -3, -1, 11, 5&15
> Cn1c(Nc2ccc(F)cc2)nc2ccccc21
→ -0.5, 15, 1, 8, 0, 8
> Cc1ccc(Nc2cc(C)nc(-c3ccccc3)n2)cc1
→ 3.0, -12, 1, -3, -7, 13
> COc1ccc(C(=O)Nc2nc(-c3cccs3)c(NC(C)=O)s2)cc1
→ -0.1, 8, 2, 0, -2, -16
> COc1ccc(Cn2nc(C)n(N(C)c3ncc(C(F)(F)F)cc3Cl)c2=O)cc1
→ 0.2, -11, -3, 3, 10, 39
> Cc1ccc(-c2nc3cc(C)c(Br)c(C)n3c2Cc2ccccc2)cc1
→ 0.7, x, 0, -6, -11, 5
> O=C(NC(=O)c1ccc(C(F)(F)F)cc1)Nc1ccc(-c2cnco2)cc1
→ 0.2, 1, 2, -4, -9, 15
> Cc1cc(C)c2nc(-c3ccccn3)cc(C(=O)Nc3cc(C)on3)c2c1
→ -0.1, -9, -9, 0, -21, -5
> COc1ccc(N2CCN(S(=O)(=O)CCNC(=O)C3CC3)CC2)cc1
→ -0.8, 5, -3, 0, -8, 1
> O=C(NCc1nc(-c2ccc(C(F)(F)F)cc2)no1)Nc1ccc(F)cc1F
→ 0.2, -13, -14, 4, -7, -4
> COCCOC(=O)C1=C(C)Nc2ncnn2C1c1ccc(F)cc1 (configuration not stated)
→ -0.6, -9, 0, 2, -1, -9
> O=C(Nc1cc(Cl)ccc1-n1cncn1)c1ccccc1OC(F)F
→ 3.0, -9, 3, -2, 7, 4
> O=C(N/N=C/c1cccc([N+](=O)[O-])c1)c1cccc2cc[nH]c12
→ 0.4, -8, 1, 4, -8, 12
> O=C(Nc1cccc2ccccc12)N1CC=C(c2ccccc2)CC1
→ 0.6, 3, 2, 8, -2, 26
> CC/C(C)=C1/NC(=O)NC1=O
→ -0.3, x, 2, -8, -4, -4
> CC(C)OC(=O)Cn1c(=O)sc2ccccc21
→ -1.2, 5, 6, -3, -12, 1
> COc1ccc(CC(=O)N(Cc2ccccc2)c2ccccc2)cc1S(=O)(=O)N1CCOCC1
→ 0.7, -12, 1, -8, 20, 1
> c1ccc(-c2nc3c4ccccc4ccn3c2CN2CCOCC2)cc1
→ 0.1, -23, 5, x, -20, 26
> COc1ccc(CNS(=O)(=O)c2ccc3c(c2)N(C)CCO3)cc1
→ -0.5, 8, -2, x, -3, -15

Copied from above, two compounds:
Each structure is followed by: TRPML1 ag, TRPV1 potentiator, Six1-Eya2 inh, CtBP-E1A blk, D2 PAM, TRPML1 inh
> COc1ccccc1Nc1nc(N)nc(-c2oc3ccccc3c2C)n1
→ -0.3, u, -3, 2, 4, -1
> CCOc1cc(CNc2ncnc3nc[nH]c23)ccc1OC
→ 0.1, 4, -2, 2, -2, -9

Source: PubChem
